Compound activity (PubChem BioAssay)
D2 agonist: Beta-Arrestin HTS for Positive Allosteric Modulators of the Human D2 Dopamine Receptor: Agonists; D(2) dopamine receptor (Homo sapiens), P14416; DiscoveRx PathHunter D2 beta-arrestin, luminescence, 90 min; 100% = 57 uM dopamine signal; activation, % (test concentration not listed); 0.084% of 360,000 active; in the data active = activation above about 40%; inconclusive = about 15% to 40%; inactive = below about 15%; also: compound concentration not given in the record; the text of the record calls up to 30% inactive
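DiscoveRx PathHunter D2 beta-arrestin cells (2,100/well) attached overnight, then compound-stimulated 90 min at 37 C in HBSS/10 mM HEPES/0.1% Tween-20 buffer; beta-galactosidase complementation read by luminescence after 1 h at ambient temperature. Dopamine 57 uM final (EC100) as control.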
TRPML1 agonist: qHTS for Agonists of the Human Mucolipin Transient Receptor Potential 1 (TRPML1) | AID 624414, 2012 | activation, % (no concentration beside the values) | TRPML1-expressing cells, Ca2+ dye fluorescence, FDSS; host cell line not named in the record; reference of the full effect not given here | 0.12% of 410,000 active; in the data active = activation above about 50%; inconclusive = about 30% to 50%; inactive = below about 30%; also: 0% is about no effect; the text of the record puts the active cut at 80%
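Cells: TRPML1-DL, 1X Tet inducer, ~16 h at 37 degrees C/5% CO2. Dye: ABD Ca8 no-wash + quencher, 45-90 min RT. Read: 10 s baseline, compound add, 110 s agonist phase; 54-4 EC80 (4uM final), 110 s antagonist phase.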
D2 PAM: Beta-Arrestin HTS for Positive Allosteric Modulators of the Human D2 Dopamine Receptor: Potentiators; potentiation, % (concentration not given with the values); D(2) dopamine receptor (Homo sapiens), P14416; 0.23% of 360,000 active; DiscoveRx D2 beta-arrestin cells, luminescence, 90 min; 100% = 57 uM dopamine signal; active = potentiation of 50% or more; inconclusive = 30% to 50%; inactive = 30% or less;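 also: compound concentration not given in the record; tested on top of an EC20 dose of dopamine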
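PathHunter D2 cells, attached overnight at 37 deg C, received compound in DMSO plus dopamine at EC20 (50 nM final) for 90 min at 37 deg C. Beta-arrestin recruitment was read as luminescence after 1 h with detection reagent at ambient temperature.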
TRPML1 inh: qHTS for Inhibitors of the Human Mucolipin Transient Receptor Potential 1 (TRPML1); Mucolipin-1 (Homo sapiens), Q9GZU1; TRPML1-inducible cells, Ca2+ dye fluorescence, FDSS; active compounds read low; inhibition of EC80 agonist-evoked calcium signal; activity change, negative = inhibition, % (no concentration beside the values); 0.02% of 390,000 active; AID 624415, 2012; in the data active means activity change below about -50%; inconclusive means about -30% to -50%; inactive means above about -30%;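 also: stimulus is agonist 54-4 at its EC80 concentration; % is scaled to controls: 0 for no effect and ±100 for the full control effect; compound concentration not given in the record; the text of the record puts the active cut at -80%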
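TRPML1-DL cells, Tet-induced overnight (~16 h, 37 °C) at 1,500 cells/well, were loaded with Ca8 no-wash dye plus quencher for 45-90 min at room temperature. Compounds were pinned during FDSS kinetic reading; agonist 54-4 at EC80 (4 uM final) then added.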
PINK1 modulator: A Quantitative High throughput Screen to Identify Chemical Modulators of PINK1 Expression | Potency, µM (top dose mostly 76.6 µM), inactives show top-dose activation (PINK1 increase), usual class: activators | AID 624263, 2012 | PINK1 immunofluorescence, high-content cytometry, 24 h | 0.2% of 410,000 active; active = well fitted activation curve with a large enough effect; inconclusive = small, poorly fitted or top-dose-only effect; inactive = flat fitted curve, though single readings scatter; cell line not stated here;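 also: potency is read from the fitted curve at half-maximal effect; % of control where 0% means no effect; nearly all actives have a fitted effect of over 65% in size; a mitochondrial uncoupler was the plate control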
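Compound titrations (5 concentrations, 24 h) on a stable cell line; DMSO and CCCP controls. Endpoint: fixed-cell PINK1 immunofluorescence with mitochondrial, cell and nuclear markers, scanned by microplate cytometer.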
Six1-Eya2 blk: qHTS Assay for Inhibitors of the Six1/Eya2 Interaction. Homeobox protein SIX1 (Homo sapiens) + Protein phosphatase EYA2 (Homo sapiens), …. AlphaScreen GST-Six1/His-Eya2 binding, biochemical; active compounds read low; control for the full effect not named in the record. activity change, % (concentration not given with the values). 0.56% of 360,000 active; in the data active = activity change below about -65%; inconclusive = about -30% to -65%; inactive = above about -30%; also: % is scaled to controls: 0 for no effect and ±100 for the full control effect
Target sequence (O00167 whole entry, looked up): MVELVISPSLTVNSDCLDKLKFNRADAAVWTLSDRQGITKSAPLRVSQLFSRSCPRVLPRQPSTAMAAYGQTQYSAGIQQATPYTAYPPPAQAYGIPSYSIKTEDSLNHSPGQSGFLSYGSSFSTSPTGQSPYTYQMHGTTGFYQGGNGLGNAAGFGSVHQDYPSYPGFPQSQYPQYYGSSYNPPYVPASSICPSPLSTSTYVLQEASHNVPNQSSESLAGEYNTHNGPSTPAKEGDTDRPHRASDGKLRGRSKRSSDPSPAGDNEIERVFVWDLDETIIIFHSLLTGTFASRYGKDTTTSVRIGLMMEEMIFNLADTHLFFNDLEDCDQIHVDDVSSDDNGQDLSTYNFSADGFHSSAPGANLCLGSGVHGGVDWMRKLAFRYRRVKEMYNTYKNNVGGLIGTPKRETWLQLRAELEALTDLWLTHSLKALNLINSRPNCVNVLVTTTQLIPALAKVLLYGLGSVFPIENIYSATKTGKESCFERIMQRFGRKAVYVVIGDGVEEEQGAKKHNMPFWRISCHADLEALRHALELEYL
Target sequence (Q15475 whole entry, looked up): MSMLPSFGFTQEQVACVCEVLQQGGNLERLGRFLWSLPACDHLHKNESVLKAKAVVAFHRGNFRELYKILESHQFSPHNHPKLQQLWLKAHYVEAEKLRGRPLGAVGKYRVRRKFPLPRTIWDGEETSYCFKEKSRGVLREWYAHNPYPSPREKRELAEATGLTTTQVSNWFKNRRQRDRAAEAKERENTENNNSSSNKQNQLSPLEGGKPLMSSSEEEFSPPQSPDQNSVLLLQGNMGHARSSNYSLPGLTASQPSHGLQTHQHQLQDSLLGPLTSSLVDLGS
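Six1/Eya2 binding was read as AlphaScreen signal after compounds were pinned into GST-Six1 plus His-tagged Eya2 (5X stock 250/500 nM) in pH 8.0 Tris/NaCl/TCEP buffer, beads added, then incubated 1 h, 37 C, dark.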
* hit, by the source's call; ? = inconclusive; . = not tested or not shown; & = joins results of further samples; [ ] = remark or other dose. Rows were taken by chance; about 1% have a hit in one of these screens.

SMILES	D2 agonist	TRPML1 agonist	D2 PAM	TRPML1 inh	PINK1 modulator	Six1-Eya2 blk
CCOc1cc(CNc2ccc3c(c2)OCCO3)cc(Br)c1OCC(N)=O	2.9	1.4	3	-9	2.2%[38.3 µM]	?
O=[N+]([O-])c1ccc(N/N=C/c2ccc(O)c(O)c2O)c(S(=O)(=O)N2CCOCC2)c1	-5.1	-0.7	-10	7	-0.4%	-22
C#CCOc1ccc(Cl)cc1/C=N/O	3.5	1.7	3	7	.	1
Cc1cccc(NS(=O)(=O)c2ccc(C(=O)N3CCC3)cc2)c1C	-2.2	-0.4	2	-20	0.8%	8
O=C(Nc1ccc2nn(-c3ccccc3)nc2c1)c1ccco1	-3.1	1.1	-14	-19	4.4%	-2
S=C1SCN(Cc2cccs2)CN1Cc1cccs1	-13	1.7	-9	1	4.5%	9
CC(C)NC(=O)CCCn1cc([N+](=O)[O-])cn1	-1.9	-0.7	-7	?	0.9%	2
COc1cc(C2OC(=O)C3C(c4ccc(OC(C)=O)c(OC)c4)OC(=O)C23)ccc1OC(C)=O (configuration not stated)	-5.5	0.1	-3	15	0.0%	-9
CC(C)N1C(=O)CCC1C(=O)N1CCN(c2ccccn2)CC1 (configuration not stated)	-2.4	0.3	-4	-11	2.6%	22
Cc1ccc(S(=O)(=O)N2CCOCC2)cc1NC(=O)c1cc(-c2ccccn2)nc2ccccc12	-0.6	.	20	.	2.5%	-2
CCOc1ccc(NC(=O)Cn2cc(S(=O)(=O)N3CCN(c4ccccc4F)CC3)c3ccccc3c2=O)cc1	.	-0.2	.	2	-0.8%	.
CCn1cc(Cl)c(C(=O)Nc2nccs2)n1	-1.8	6.7	-4	19	0.3%	1
Cc1ccc(S(=O)(=O)N2CCCC(C(=O)NCCC3=CCCCC3)C2)cc1 (configuration not stated)	-1.6	2.1	-4	50	3.3%[38.3 µM]	0
COc1ccc(-c2cn(Cc3cccc(OC)c3)nn2)cc1	1.0	0.6&-0.8	3	6	-0.2%	4
Cc1cccn2c(=O)c3cc(C(=O)NCc4ccco4)c(=N)n(CCc4ccccc4)c3nc12	-3.8	1.1	-11	11	7.7%	?
O=[N+]([O-])/C=C1/CCCCCN1	-1.6	0.7	-28	1	1.4%	3
COc1cccc(-c2nc(NCC3CCCO3)c3ccccc3n2)c1O (configuration not stated)	-2.3	-0.4	10	-10	-0.6%	?
COc1ccccc1NC(=O)CSc1nnc2ccc(-c3cccnc3)nn12	-2.8	-0.7	-2	-13	1.0%	-8
O=C(NNC(=O)c1ccccc1Cl)c1ccncc1	0.9	-0.4	-5	-20	6.1%	13
CN1CCN(C(=O)c2cccc(S(=O)(=O)N3CCCCC3)c2)CC1	-0.1	-0.1	-8	-3	.	0
CCOC(=O)C1=C(C)NC(C)=C(C(=O)OCC)C1C1=COCCO1	-0.6	0.1	-28	-16	-1.2%	-23
O=C1COc2ccccc2C(c2nc3ccccc3[nH]2)N1C1CC1 (configuration not stated)	.	-0.4	.	.	2.3%	6
CCS(=O)(=O)N1CCC(C(=O)NCCN2CCOCC2)CC1	-1.8	0.5	-19	23	1.0%	1
COc1cccc(OC)c1C(=O)N[C@@H]1C(=O)N2[C@@H]1SC(C)(C)[C@@H]2C(=O)O	-3.8	-0.1	-8	6	-0.7%	-9
Cc1ccc(NC(=O)CCCC(=O)O)c(-c2nc3ccccc3[nH]c2=O)c1	-5.7	-0.1	-1	-8	2.5%	3

Next part; the last 3 above are carried over.
SMILES	D2 agonist	TRPML1 agonist	D2 PAM	TRPML1 inh	PINK1 modulator	Six1-Eya2 blk
CCS(=O)(=O)N1CCC(C(=O)NCCN2CCOCC2)CC1	-1.8	0.5	-19	23	1.0%	1
COc1cccc(OC)c1C(=O)N[C@@H]1C(=O)N2[C@@H]1SC(C)(C)[C@@H]2C(=O)O	-3.8	-0.1	-8	6	-0.7%	-9
Cc1ccc(NC(=O)CCCC(=O)O)c(-c2nc3ccccc3[nH]c2=O)c1	-5.7	-0.1	-1	-8	2.5%	3
CCOC(=O)c1cc(S(=O)(=O)NCc2ccccc2)[nH]n1	.	0.8	.	-10	0.2%	.
CCCC[C@@H]1CNCCN1CCCc1cc(OC)c(OC)c(OC)c1	-1.3	-0.3	-11	0	-0.4%	0
CCn1nnc(NC(=O)c2cccnc2)n1	-4.2	0.8	-16	-7	-1.9%	-2
COc1ccc(NC(=O)c2ccc(-c3c(C)noc3C)c3ccoc23)cc1	5.9	-0.2	-7	.	2.5%	-26
CCN1CCN(c2ccc(NC(=O)CCc3c(C)nc4c(-c5ccccc5)c(C)nn4c3C)cc2)CC1	-2.8	0.7	-6	12	-1.1%	-1
CCOc1ccc(N2C(=O)CN=C2Nc2ccccc2Cl)cc1	-2.1	-0.1	-13	-9	0.4%	12
NC(=O)COC(=O)c1cccnc1Nc1ccccc1F	-6.4	0.6	0	1	2.5%	-2
Cc1cccc(C)c1NC(=O)CNC(=O)CNC(=O)c1ccc2c(c1)OCO2	1.6	-0.1	-10	12	-0.6%	-8
COc1ccc(N(C)C(=O)C2CCN(S(=O)(=O)c3cccc4nonc34)CC2)cc1	-0.3	0.0	-2	-5	1.8%	4
CCOc1ccc(CN2CCNC(=O)C2CC(=O)O)cc1 (configuration not stated)	0.2	1.5	-5	-15	-0.1%	3
NC(=O)c1ccccc1OCC(=O)Nc1cccnc1Cl	-3.1	0.0	-3	-8	1.5%	8
N#Cc1c(NC(=O)c2ccc(Cn3cc(Br)cn3)o2)sc2c1CCCCC2	-2.8	1.5	4	-19	0.3%	-4
Cc1sc2ncn(CC(=O)N3CCN(c4ccccn4)CC3)c(=O)c2c1S(=O)(=O)N1CCC(C)CC1	0.6	-0.1	-4	11	5.2%	1
O=C(NCc1ccccc1Cl)[C@H]1CCCN1C(=O)[C@H]1CCCN1C(=O)c1ccc(Cl)cc1	.	0.6	.	.	-1.2%	4
COc1ccc(/C=N/NC(=O)c2ccco2)cc1COc1ccc(F)cc1	6.5	1.6	-6	13	3.1%	-1
COc1ccccc1N(CC(=O)NC(C)(C)C)C(=O)CCC(=O)Nc1ccccn1	-5.5	-0.1	-3	0	-0.1%	-3
O=C(CSc1nc2cc(Cl)ccc2o1)NCCc1ccccc1	0.6	1.9	0	18	-2.1%[38.3 µM]	6
CCOC(=O)/C(=C/Nc1ccccc1)[N+](=O)[O-]	-9.4	-0.6	-2	-14	-0.3%	3
COc1cc(OC)cc(-c2nnc(SCc3cccc(C(=O)O)c3)o2)c1	-2.2	1.7	-3	-3	-0.3%[38.3 µM]	-2
COc1ccc(C(=O)Nc2ccc(S(=O)(=O)N3CCN(C)CC3)cc2)cc1[N+](=O)[O-]	-4.3	0.2	-5	-10	11%	-29
O=C(CN1C(=O)CSC1=O)N1CCc2ccccc2C1	-1.6	0.0	-18	24	-0.3%	6
O=C(O)Cc1ccc2sc(-c3ccccc3)nc2c1	-2.0	-0.7	3	-2	-1.3%	-2
CCNc1nc(NC(C)(C)C)nc(SC(C(C)=O)C(C)=O)n1	-0.9	1.4	-3	5	3.5%	-1
O=C(CSCc1ccccc1)N1CCN(S(=O)(=O)c2ccc(F)cc2)CC1	-3.3	-0.4	-11	-7	-0.8%	0
NC(=O)COC(=O)c1cc(-c2ccco2)nc2ccccc12	-1.7	-0.2	-9	4	1.9%	-12

Next compounds.
SMILES	D2 agonist	TRPML1 agonist	D2 PAM	TRPML1 inh	PINK1 modulator	Six1-Eya2 blk
CCN(CC)S(=O)(=O)c1ccc2nc(CCl)[nH]c2c1	-0.4	-0.7	-15	13	-1.5%	17
O=C(N/C(=C/c1cccnc1)C(=O)N1CCOCC1)c1ccccc1	-4.2	-0.4	-10	-19	-0.1%	-1
CCCCNC(=O)CC1Nc2ccccc2NC1=O (configuration not stated)	-6.3	-0.4	-13	29	3.4%	3
COc1ccc(C(CNC(=O)c2ccccc2C)N2CCCC2)cc1 (configuration not stated)	-0.6	0.5	-19	9	4.8%[38.3 µM]	-3
COc1ccc(CCNC(=O)COC(=O)CSc2ccc([N+](=O)[O-])cc2)cc1OC	-0.5	2.5	-13	-14	1.1%	-1
Cc1c(Cl)c([N+](=O)[O-])nn1CC(=O)NCc1cccnc1	2.9	-0.5	0	-5	5.3%	0
CCSc1nc(-c2ccc(OC)cc2)n(-c2nc3ccccc3s2)n1	-2.9	-0.3	-9	-1	12%[38.3 µM]	16
Cc1noc(C)c1S(=O)(=O)Nc1ccc2c(c1)C(=O)N([C@H](C)CO)C[C@H](C)[C@@H](CN(C)C(=O)CCCN(C)C)OCCCC[C@@H](C)O2	-10	0.2	0	4	0.0%	5
CCOc1cc(CNn2c(C)nnc2SCC(=O)NC(C)(C)C)ccc1OCC(=O)NC(C)(C)C	-1.1	-0.1	-2	-11	2.2%	16
COc1ccc(C(=S)N2CCOCC2)cc1OC(=O)c1cc([N+](=O)[O-])c(C)c([N+](=O)[O-])c1	0.3	-0.6	2	3	-0.2%	-2
Fc1cccc(NC(=S)NCC(c2cccnc2)N2CCOCC2)c1 (configuration not stated)	0.4	0.5	-13	-4	-2.1%	2
Cc1cccc(NC(=O)NCC2CCN(c3ccc(S(=O)(=O)N4CCOCC4)cc3)CC2)c1	0.1	0.8	-9	10	1.5%	-12
Cn1cccc1/C=N/NC(=O)c1ccco1	-5.7	-0.6	-5	-1	0.5%	2
O=C(COc1cccnc1[N+](=O)[O-])Nc1ccc2c(c1)CCC2	0.6	0.8	-15	20	5.3%	5
CC(C)(C)CN1CCNC(=O)C1CC(=O)NCCc1ccccc1C(F)(F)F (configuration not stated)	-4.0	0.1	-11	-2	-0.2%	4
Cc1cc(OC(C)C(=O)NCCCN2CCOCC2)ccc1Cl (configuration not stated)	-4.6	0.9	-24	-2	-3.2%	27
Cc1sc(NC(=O)CN2CCOCC2)c(C#N)c1C	-4.9	-0.2	-18	3	1.9%	-1
O=C(OCc1ccc2c(c1)OCO2)c1cccc(S(=O)(=O)N2CCCCC2)c1	-1.4	-0.1	-5	21	-0.3%[38.3 µM]	-1
Cc1cc(C)cc(NC(=S)N(Cc2ccc(Cl)cc2)Cc2ccc(C(=O)O)cc2)c1	0.6	0.0	-2	-13	1.2%	-5
CCCNC(=O)/C=C/c1ccc(C(C)C)cc1	1.5	1.7	-12	-23	4.9%	17
O=C1c2ccc3c4c(ccc(c24)C(=O)N1c1cccc(O)c1)C(=O)N(c1cccc(O)c1)C3=O	7.3	-0.8	0	-1	-0.3%	-1
